Mtb betalactam: beta-lactam sensitization of Mtb H37Rv | M. tuberculosis H37Rv growth with meropenem, percent inhibition; hits of this screen are not shown here | inhibition, % at 25 µM | 0.27% of 330,000 active;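 active means about 74% or more and at least 40 points above the plate without the antibiotic, then above 30% in a dose series; inconclusive means first-round hits that could not be retested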;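 further: growth measured after seven days incubation then overnight dye step; 0% = bacteria only wells and 100% = bacteria with antibiotic; twin plates without the antibiotic show which effects depend on it; some results filed as inactive read as strong as hits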
RecA intein inh: Mtb RecA intein splicing inhibition | cell-free RecA intein splicing, fluorescence | inhibition, %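 (about 9 µM by stock and volumes)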 | 0.75% of 290,000 active | P9WHJ3; in the data active means inhibition above about 30%; inconclusive means no clear call, values can overlap the other calls;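 further: 0% = vehicle wells and 100% = reference inhibitor control wells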
Target sequence (P9WHJ3 whole entry, looked up): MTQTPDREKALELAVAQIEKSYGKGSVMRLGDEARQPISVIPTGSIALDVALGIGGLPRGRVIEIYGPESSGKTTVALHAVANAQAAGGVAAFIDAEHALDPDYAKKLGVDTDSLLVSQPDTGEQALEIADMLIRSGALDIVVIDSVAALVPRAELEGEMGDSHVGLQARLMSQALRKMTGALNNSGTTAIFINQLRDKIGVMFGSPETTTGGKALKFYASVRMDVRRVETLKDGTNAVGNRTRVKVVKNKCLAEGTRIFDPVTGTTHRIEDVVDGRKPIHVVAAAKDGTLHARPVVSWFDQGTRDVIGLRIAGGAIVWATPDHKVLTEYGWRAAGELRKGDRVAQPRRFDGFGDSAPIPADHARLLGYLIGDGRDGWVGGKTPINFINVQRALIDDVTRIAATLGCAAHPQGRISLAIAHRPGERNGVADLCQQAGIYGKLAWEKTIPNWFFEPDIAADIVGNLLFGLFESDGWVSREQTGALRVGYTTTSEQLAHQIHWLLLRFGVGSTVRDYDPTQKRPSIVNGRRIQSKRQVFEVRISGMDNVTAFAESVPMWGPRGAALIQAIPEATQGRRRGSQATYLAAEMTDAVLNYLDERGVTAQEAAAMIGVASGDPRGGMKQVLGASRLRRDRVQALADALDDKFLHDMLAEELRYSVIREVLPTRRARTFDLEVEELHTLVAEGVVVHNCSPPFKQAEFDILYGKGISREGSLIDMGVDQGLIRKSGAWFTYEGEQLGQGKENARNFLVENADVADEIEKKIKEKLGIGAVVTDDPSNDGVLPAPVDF
YopH inh: YopH (Yersinia) phosphatase inhibition. fluorescence Ex485/Em525. inhibition, %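 (about 10 µM by stock and volumes)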. AID 898. 0.16% of 140,000 active;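 active means inhibition of 50% or more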;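 further: controls were vehicle for no effect and minimum signal wells for full effect; inactives centre near -20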
Mtb growth: M. tuberculosis H37Rv growth inhibitors, H37Rv strain (AID 1626); 0.95% of 220,000 active; M. tuberculosis H37Rv growth inhibition; higher % means a stronger effect; inhibition, % at 10 µM, or IC50 in µM where a hit was titrated;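 active means confirmed in a dose series; inconclusive means inhibition above 80% but not taken into the dose series; inactive means below 80% or under 30% at every dose of the series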;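 further: bacteria incubated seven days before Alamar blue readout; 0% = bacteria only wells and 100% = bacteria with antibiotic wells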
Arbovirus anti: antivirals against arbovirus infection; 0.37% of 200,000 active; inhibition, % at 10 µM; arbovirus infection cell-based antiviral screen; AID 1251;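 active means inhibition from about 30%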;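 further: bluetongue infection of BSR cells; cell survival read as ATP light after 72 h; 0% = infected wells without compound and 100% = uninfected wells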
Arbovirus anti repeat: also measured in Arbovirus anti; calls as there; inhibition, %; measured here: 10K subset replicate screen; many hits read low in the repeat;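 first of two repeat runs on a subset; 0% = infected and 100% = uninfected wells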
Numbers without * were called inactive; ? = inconclusive; . = not tested or not shown. The list is partial (hit frequency here may not be typical).

SMILES	Mtb betalactam	RecA intein inh	YopH inh	Mtb growth	Arbovirus anti	others
CC(=O)c1sc(N/N=C2\CC3CC2C(C)C3(C)C)nc1C (centres undefined)	65	5.4	.	3%	-3
Cc1ccc(C)c(NC(=O)N2CCc3ccccc3C2)c1	-3	-0.1	.	.	.
COc1ccc(C2=NN3C(C2)c2ccccc2OC32C(=O)N(C)c3ccccc32)cc1 (centres undefined)	29	-2.8	-29	.	7
COc1ccc(C2(CNC(=O)CCC(=O)O)CCCC2)cc1	1	2.9	-36	-11%	6
O=C(Nc1cccc(Cl)c1Cl)C1CCCC1	-1	2.7	.	.	.
COc1ccc2sc(N(CCCN(C)C)C(=O)c3ccc(S(=O)(=O)N4CCc5ccccc5C4)cc3)nc2c1	-7	1.7	.	.	.
COc1ccc(C(=O)N(CC(=O)NC(C)(C)C)c2ccc3c(c2)OCCO3)cc1OC	-16	4.0	-44	-9%	-3
CCOC(=O)N1CCN(C(=O)c2ccc3c(c2)N=C(C)c2cc(Cl)ccc2S3)CC1	45	3.4	.	.	.
COC(=O)C1(C(C[N+](=O)[O-])c2ccc(C)cc2)C(=O)NCC1c1ccco1 (centres undefined)	-4	-4.9	.	-4%	.
O=C(c1cnn2c1NC(c1ccco1)CC2C(F)(F)F)N1CCN(c2cccc(Cl)c2)CC1 (centres undefined)	-3	10	32	21%	-16
CCN(CC(=O)Nc1ccc2c(c1)OCCO2)C(=O)C1CCCCC1	-8	1.6	-27	6%	3
CCOC(=O)N1CCC(Nc2cccc(SC)c2)CC1	1	-0.2	-28	-6%	16
CCCC(=O)Nc1nc2c(OC)ccc(OC)c2s1	-7	-5.8	.	5%	-6	Arbovirus anti repeat=-6
CCOc1ccccc1C(=O)Nc1nnc(SCC(=O)N2CCOCC2)s1	4	-4.1	.	0%	21
CN(C)c1ccc(C(=S)N2CCN(C(=S)Nc3ccccc3)CC2)cc1	-2	-2.9	.	-6%	1
Cc1ccccc1-c1nc(CS(=O)(=O)CC(=O)N2CCc3ccccc32)c(C)o1	4	0.9	-15	7%	-9
COc1ccccc1NC(=O)CN1CCN(c2ccccc2F)CC1	4	2.5	-27	9%	12
O=C(CCN1C(=O)C2C3C=CC(C3)C2C1=O)N1CC(=O)N(CCc2ccccc2)C(=O)C1 (centres undefined)	-7	.	-17	-21%	3
Cc1ccc(S(=O)(=O)NCC(=O)N(CC(=O)NC2CCCCC2)CC2CCCO2)cc1 (centres undefined)	-7	-1.8	-18	-4%	3
COc1ccc(C(CNC(=O)CN2C(=O)NC3(CCCC3)C2=O)N(C)C)cc1 (centres undefined)	-3	-0.5	.	.	.
CCn1c(SCC(=O)N2CCOCC2)nnc1C(C)NC(=O)c1ccccc1 (centres undefined)	-4	-5.3	.	.	.
CCOC(=O)CN1CCc2c(C)nc3c(-c4ccc(OC)c(OC)c4)cnn3c21	5	5.0	-33	-6%	0
COc1cc(C)c(C(=O)CSc2nnc(CNC(=O)c3ccco3)n2C)cc1C	-3	-0.8	.	.	.
Cc1ccc(NC(=O)CN2C(=O)CNC2=O)cc1	-6	-5.3	.	2%	.
Cc1cc2c(cc(C(=O)N3CCC(C(=O)N4CCCC4)CC3)n2Cc2c(F)cccc2Cl)o1	-4	15	-42	11%	16
O=[N+]([O-])c1ccc(/C=N/n2c(-c3ccccc3)n[nH]c2=S)cc1	-3	1.2	.	.	.
O=C(/C=C/NCc1cccnc1)C(F)(F)C(F)(F)F	2	0.7	.	8%	-4
CNC(=O)CSc1nnc(-c2ccncc2)n1Cc1ccccc1	13	-0.3	-37	-4%	1
O=C1CCCN1c1ccc(Br)cc1	-7	-1.3	-4	-5%	3
Cc1[nH]c2ccccc2c1/C=N/NC(=O)c1cc(C(C)(C)C)[nH]n1	52	2.6	.	-5%	.
Cc1[nH]c2ccccc2c1/C=C/c1nc2ccccc2c(=O)n1-c1ccc([N+](=O)[O-])cc1	6	0.3	-20	25%	-25
CCn1cc(C(=O)NCCCN2CCCC2)c(=O)c2cc(S(=O)(=O)N3CCc4ccccc4C3)ccc21	3	-0.5	.	-2%	8
CCOc1cc(/C=N/NC(=O)c2ccccn2)ccc1OC(=O)c1cccs1	99	-1.1	.	.	.
COc1ccc(NS(=O)(=O)c2cccs2)cn1	6	2.8	.	-6%	10
COc1ccc(N(CC(=O)NN=C2CCCC2)S(=O)(=O)c2ccccc2)cc1	-5	-0.4	-41	0%	0
COc1cc(NC(=O)c2ccnnc2)cc(C(=O)Nc2cccc(C(F)(F)F)c2)c1	38	1.3	.	-12%	.

Retrieved by structure from above:
SMILES	Mtb betalactam	RecA intein inh	YopH inh	Mtb growth	Arbovirus anti	others
Cc1[nH]c2ccccc2c1/C=N/NC(=O)c1cc(C(C)(C)C)[nH]n1	52	2.6	.	-5%	.
O=C1CCCN1c1ccc(Br)cc1	-7	-1.3	-4	-5%	3
O=C(/C=C/NCc1cccnc1)C(F)(F)C(F)(F)F	2	0.7	.	8%	-4
CCOc1cc(/C=N/NC(=O)c2ccccn2)ccc1OC(=O)c1cccs1	99	-1.1	.	.	.

More records follow:
SMILES	Mtb betalactam	RecA intein inh	YopH inh	Mtb growth	Arbovirus anti	others
COc1ccccc1N1CCN(C(=O)c2ccc3c(Cl)c4c(nc3c2)CCCC4)CC1	12	28	-19	17%	2
O=C(N/N=C/c1ccco1)c1ccccc1OCc1ccc(Br)cc1	-5	6.2	-8	8%	-6
O=C(CN1CCOCC1)NNc1nc(-c2ccccc2)c2cc(Br)ccc2n1	9	0.6	.	-4%	-8
CCCn1c(N)c(C(=O)CSc2nc3ccccc3n2CCC#N)c(=O)n(C)c1=O	-1	-2.7	-35	-7%	-5
Cc1ccccc1C(=O)N/N=C/c1ccccn1	4	-2.5	-20	0%	-3
CC(C)NS(=O)(=O)c1ccc(CCC(=O)O)cc1	-5	-2.2	-21	7%	-4
COc1ccc(CNc2ccc(S(N)(=O)=O)cc2)c(OC)c1OC	10	-2.4	-46	5%	-19
COc1ccccc1CN(C(=O)CNC(=O)c1ccco1)C(C(=O)NCC1CCCO1)c1ccccc1 (centres undefined)	-2	-0.8	.	.	.
CN1CCN(C(=O)c2ccc(N(Cc3ccc(Cl)cc3)S(C)(=O)=O)cc2)CC1	0	-0.6	-1	-8%	-2
COc1ccc(-c2nn(-c3ccccc3)cc2/C=C\C(=O)N2CCOCC2)cc1[N+](=O)[O-]	8	-0.5	.	-3%	2
COc1ccc(C)cc1Nc1n[n+](-c2ccccc2)c(-c2ccc(N(C)C)cc2)s1	100	-0.4	.	.	.
O=C(COC(=O)CSc1ccc2ccccc2c1)NCc1ccc2c(c1)OCO2	1	8.7	-21	-5%	4
Cc1csc(N(C(=O)c2ccccc2F)c2ccccc2)n1	0	8.8	.	-3%	-6
CCOC(=O)N1CCN(Cc2nc3cc(NC(=O)CC)ccc3n2CC)CC1	3	0.6	.	.	.
CC(=O)OCCc1c2ccccc2c(CCCN(C)C)c2ccccc12	-20	-47	.	.	.
COc1cc2c3c(c1)/C(=C1/SC(=S)NC1=O)C(=O)N3C(C)(C)C=C2C	5	-0.4	-7	1%	1
CN(C)c1nc(N/N=C/c2ccccc2O)nc(Nc2ccc(F)cc2)n1	13	2.1	.	45%	-26
COc1ccc(CNC(=O)CN2CCN(c3ccccc3O)CC2)cc1OC	-7	-2.6	.	.	.
CC(C)n1c(=O)c(C=Nc2ccc(Cl)cc2)c(O)n(Cc2ccco2)c1=O	-5	5.9	-12	4%	-13
CC(C)C(NC(=O)C(NC(=O)C1O[C@@H]2OC(C)(C)O[C@@H]2[C@H]2OC(C)(C)O[C@@H]12)C(C)C)C(=O)O (some centres undefined)	2	-1.7	.	-3%	6
O=C(O)CCCNS(=O)(=O)c1ccccc1	-7	-2.2	-13	-3%	10
O=S(=O)(Nc1ccccn1)c1ccc(Cl)c2ccccc12	0	0.0	.	0%	3
O=c1c2c3c(sc2nc2n1CCC2)CCC3	14	2.3	-10	-5%	-1
Cc1ccccc1C(=O)O/N=C(\N)c1ccc([N+](=O)[O-])cc1	2	1.5	.	.	.
CCOC(=O)C1CCN(c2c(NCCN3CCCCC3C)c(=O)c2=O)CC1 (centres undefined)	2	-2.9	-21	3%	-2
N#CCNC(=O)C1c2ccccc2Oc2ccccc21	-8	-0.7	.	.	.
CC(=O)Nc1ccc(S(=O)(=O)n2nc(-c3ccc(C)cc3)nc2N)cc1	0	-2.2	-33	4%	-6
CCOC(=O)N1CCN(C(=O)C2CCCN(S(=O)(=O)c3ccccc3)C2)CC1 (centres undefined)	-9	-0.6	-5	-3%	-2
CC(C)Cc1cc(C(=O)Nc2ccccc2)c2ccccc2n1	3	8.8	.	.	.
Cc1c(NC(=O)c2nn3c(C(F)(F)F)cc(-c4ccccc4)nc3c2Cl)c(=O)n(-c2ccccc2)n1C	1	-1.6	-20	4%	-4
CSc1nnc(C)c(=O)n1COC(=O)c1ccc(S(=O)(=O)N2CCOCC2)cc1	1	0.3	-23	-1%	6
Cc1ccccc1CS(=O)(=O)c1snnc1C	-16	44*	-40	-9%	-1
O=C(Nc1ccc(Br)cc1F)C1CC(=O)N(C2CCCCC2)C1 (centres undefined)	-13	-0.2	.	.	.
C/C(=C1/C(=O)N(c2ccc([N+](=O)[O-])cc2)N=C1c1ccccc1)N(C)C	99	.	-24	?	-1
CCCn1c(N)c(C(=O)CSc2nc3ccccc3s2)c(=O)[nH]c1=O	-3	0.7	.	4%	1
CC(C)C[C@H](N)c1cn([C@@H](Cc2ccc(O)cc2)C(=O)N2CCNCC2)nn1	-6	2.5	.	-10%	5
O=C(CN1C(=O)c2cccnc2Oc2ccc(Cl)cc21)Nc1ccccc1F	6	0.8	.	.	.
Cc1cc(=O)[nH]c(SCCOc2ccc(OC(C)C)cc2)n1	-2	0.8	-42	-9%	7

Entries from the list above that have a Cl atom:
SMILES	Mtb betalactam	RecA intein inh	YopH inh	Mtb growth	Arbovirus anti	others
O=C(Nc1cccc(Cl)c1Cl)C1CCCC1	-1	2.7	.	.	.
CCOC(=O)N1CCN(C(=O)c2ccc3c(c2)N=C(C)c2cc(Cl)ccc2S3)CC1	45	3.4	.	.	.
O=C(c1cnn2c1NC(c1ccco1)CC2C(F)(F)F)N1CCN(c2cccc(Cl)c2)CC1 (centres undefined)	-3	10	32	21%	-16
Cc1cc2c(cc(C(=O)N3CCC(C(=O)N4CCCC4)CC3)n2Cc2c(F)cccc2Cl)o1	-4	15	-42	11%	16
COc1ccccc1N1CCN(C(=O)c2ccc3c(Cl)c4c(nc3c2)CCCC4)CC1	12	28	-19	17%	2
CN1CCN(C(=O)c2ccc(N(Cc3ccc(Cl)cc3)S(C)(=O)=O)cc2)CC1	0	-0.6	-1	-8%	-2
CC(C)n1c(=O)c(C=Nc2ccc(Cl)cc2)c(O)n(Cc2ccco2)c1=O	-5	5.9	-12	4%	-13
O=S(=O)(Nc1ccccn1)c1ccc(Cl)c2ccccc12	0	0.0	.	0%	3
Cc1c(NC(=O)c2nn3c(C(F)(F)F)cc(-c4ccccc4)nc3c2Cl)c(=O)n(-c2ccccc2)n1C	1	-1.6	-20	4%	-4
O=C(CN1C(=O)c2cccnc2Oc2ccc(Cl)cc21)Nc1ccccc1F	6	0.8	.	.	.

Bioassay records (PubChem)
